Bioassay records: PubChem, National Center for Advancing Translational Sciences (NCATS)
Pin1 inhibitor – inhibitors of human Pin1 | Pin1 FP peptide displacement, HiFluor488, 10 min | 0.009% of 390,000 active | Q13526 | Potency, µM (doses to about 115 µM), inactives show top-dose activity, negative = inhibition, usual class: inhibitors; active means well fitted inhibition curve with a large enough effect in the polarisation, with a control signal flat, not every such curve was filed as active; inconclusive means small, poorly fitted or top-dose-only effect, or effect the other way, or a change in a side signal; inactive means no such curve, though single readings can be large or run the other way; the % refers to the polarisation; further: potency means the concentration at half of the fitted maximal effect; on the % scale 0 is the no-effect control and ±100 the full control effect
Target sequence (Q13526 whole entry, looked up): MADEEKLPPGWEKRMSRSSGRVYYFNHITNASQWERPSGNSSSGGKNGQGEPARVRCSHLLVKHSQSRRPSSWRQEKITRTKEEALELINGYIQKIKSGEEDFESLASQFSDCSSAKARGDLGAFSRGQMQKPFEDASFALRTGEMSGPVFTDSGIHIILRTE
ERG Ets-DNA blk – blocks human ERG Ets domain binding to DNA; P11308; fluorescence polarization, His-ERG Ets domain / labelled DNA; Potency, µM (top dose mostly 76.9 µM), for inactives: at the highest dose FP activity, negative = inhibition, usual class: inhibitors; 0.028% of 370,000 active; active means well fitted inhibition curve with a large enough effect in the polarisation, with a control signal flat; inconclusive means small, poorly fitted or top-dose-only effect, or effect the other way, or a change in a side signal; inactive means no such curve, though single readings can be large or run the other way; the % refers to the polarisation;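 further: polarization taken with two DNA probes labelled with fluorescein and Texas red; potency means the concentration at half of the fitted maximal effect; % of control where 0% means no effect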
Target sequence (P11308 whole entry, looked up, the tested form may be a part): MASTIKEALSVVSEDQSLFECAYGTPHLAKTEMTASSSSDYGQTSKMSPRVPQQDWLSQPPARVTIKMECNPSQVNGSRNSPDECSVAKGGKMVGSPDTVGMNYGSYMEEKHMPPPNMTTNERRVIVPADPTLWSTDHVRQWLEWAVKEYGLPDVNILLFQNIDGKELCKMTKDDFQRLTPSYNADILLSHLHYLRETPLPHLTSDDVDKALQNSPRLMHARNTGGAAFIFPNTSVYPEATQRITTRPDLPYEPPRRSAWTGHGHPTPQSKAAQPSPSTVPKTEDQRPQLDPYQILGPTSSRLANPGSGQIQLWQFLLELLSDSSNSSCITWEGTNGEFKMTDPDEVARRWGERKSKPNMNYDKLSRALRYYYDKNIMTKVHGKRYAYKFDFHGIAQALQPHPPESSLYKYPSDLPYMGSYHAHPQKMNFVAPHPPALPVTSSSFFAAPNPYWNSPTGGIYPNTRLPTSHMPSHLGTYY
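His-tagged ERG Ets domain (1 uM in the protein solution; 300mM KCl, 50mM Tris-HCl, 1mM EDTA, 1mM DTT, pH 7.5) received compound, then a probe mix of 5 nM fluorescein-DNA and 100nM Texas-615-DNA. Fluorescence polarization was read for both dyes.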
GLS inh – blocks human kidney-isoform glutaminase activity | O94925 | GLS enzymatic activity, qHTS titration | Potency, µM (titrated, usually from 45.5 µM), for the others: at the top dose activity change, negative = inhibition, actives largely listed as inhibitors | 0.21% of 410,000 active | AID 624170; further: potency means the concentration at half of the fitted maximal effect; on the % scale 0 is the no-effect control and ±100 the full control effect
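Assay buffer: 45 mM KH2PO4 pH 8.2, 0.02% Tween-20. hKGA acts on L-glutamine (1 mM solution added); product glutamate is reported by an oxidase/peroxidase Amplex Red coupling, with fluorescence taken at baseline and 30 min.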
HP1b binding inh – HP1-beta chromodomain-methylated histone interaction inhibition; P83916; Potency, µM (series often up to 114 µM), for the others: top-dose activity change, negative = inhibition, most hits filed as inhibitors; AlphaScreen HP1-beta / biotin-H3K9me3 peptide binding; 0.56% of 390,000 active; further: potency means the concentration at half of the fitted maximal effect; nearly all actives have a fitted effect of over 70% in size; inactives centre near 23
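HP1-beta protein (50 nM final) preincubated 30 min at room temperature with biotinylated H3(1-18)K9me3 peptide (50 nM) in PBS pH 7.4, 0.01% Tween-20, then compound added for 30 min. AlphaScreen streptavidin donor/nickel chelate acceptor beads (10 ug/mL final), 30 min dark, luminescence read.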
JMJD2A Tudor – inhibitors of human JMJD2A Tudor domain | O75164 | AID 504339 | AlphaScreen JMJD2A-Tudor / H3K4me3 peptide binding | 4.4% of 390,000 active | Potency, µM (doses to about 114 µM), without a hit: at the highest dose activity change, negative = inhibition, hits mostly inhibitors; further: potency means the concentration at half of the fitted maximal effect; on the % scale 0 is the no-effect control and ±100 the full control effect; nearly all actives have a fitted effect of over 50% in size
G9a inh – G9a (human) methyltransferase inhibition | Potency, µM (top dose mostly 102 µM), for inactives: at the highest dose activity, negative = inhibition, actives largely listed as inhibitors | Q96KQ7 | 8.8% of 350,000 active | G9a H3K9 monomethylation, AlphaScreen, 2 h; further: potency means the concentration at half of the fitted maximal effect; on the % scale 0 is the no-effect control and ±100 the full control effect; nearly all actives have a fitted effect of over 75% in size
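Signal arises when biotinylated H3K9 peptide, once monomethylated, bridges streptavidin donor and antibody-captured acceptor beads. Enzyme at 20 nM was preincubated 15 min with test compounds; peptide 500 nM and SAM 20 uM then reacted for 2 h.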
PGK inhibitor – blocks T. brucei phosphoglycerate kinase; P07378; PGK/GAPDH coupled, Kinase-Glo luminescence, 60 min; Potency, µM (titrated, usually from 57.5 µM), without a hit: at the top dose activity change, negative = inhibition, actives largely listed as inhibitors; 0.043% of 380,000 active; AID 602233; further: potency means the concentration at half of the fitted maximal effect; on the % scale 0 is the no-effect control and ±100 the full control effect; nearly all actives have a fitted effect of over 60% in size
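Luminescent ATP detection (Kinase-Glo Plus) follows a 60-minute room-temperature incubation, with wells lacking PGK as controls. Buffer: 100 mM TEA (pH 7.6), 5 mM MgCl2, 0.01% Tween-20. Coupling enzyme GAPDH (100 nM final) supplies unstable 1,3-BPG in-well.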
PI4K2A block – blocks human PI4K2A kinase activity. activity change, negative = inhibition, % at 76.9 µM. AID 1346378. 0.13% of 420,000 active. purified PI4K2A, ADP-Glo luminescence, 1 h; hits give low values. Q9BTU6; in the data active means activity change below about -50%; inconclusive means mostly about -30% to -49%;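 further: -100% = wells without enzyme as full effect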
Target sequence (Q9BTU6 whole entry, looked up): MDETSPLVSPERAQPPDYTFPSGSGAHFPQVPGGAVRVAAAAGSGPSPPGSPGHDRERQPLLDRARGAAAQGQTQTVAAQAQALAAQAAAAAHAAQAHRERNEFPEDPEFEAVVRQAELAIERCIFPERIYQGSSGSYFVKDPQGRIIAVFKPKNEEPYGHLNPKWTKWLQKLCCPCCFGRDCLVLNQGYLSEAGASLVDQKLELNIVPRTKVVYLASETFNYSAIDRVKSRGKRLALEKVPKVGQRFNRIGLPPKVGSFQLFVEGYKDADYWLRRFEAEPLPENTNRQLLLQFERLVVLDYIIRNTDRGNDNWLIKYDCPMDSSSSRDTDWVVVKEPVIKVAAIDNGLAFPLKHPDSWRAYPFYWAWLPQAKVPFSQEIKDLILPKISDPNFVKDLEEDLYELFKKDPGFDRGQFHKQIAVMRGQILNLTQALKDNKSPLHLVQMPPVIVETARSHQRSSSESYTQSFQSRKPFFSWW
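In this quantitative HTS, ADP production by PI4K2A was quantified luminescently after 1 h at ambient temperature; 100 microM adenosine served as plate-quality control.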
* = called active by the depositor; i = inactive; ? = inconclusive; · = not tested or not shown; & = joins results of further samples; [ ] = dose if it differs, or a comment. Unless noted, the call rests on the fitted dose curve; in most records, active means well fitted curve in the direction sought with a large enough effect; inconclusive means small, poorly fitted or top-dose-only effect, or another doubt; inactive means no such curve, though single readings can be large; an effect the other way counts as inactive or inconclusive. A portion of the library (hit frequency here may not be typical).

SMILES	Pin1 inhibitor	ERG Ets-DNA blk	GLS inh	HP1b binding inh	JMJD2A Tudor	G9a inh	PGK inhibitor	PI4K2A block
O=C(CCCn1ncn2c(cc3occc32)c1=O)NCc1cccc(Cl)c1	2%	-4%	5%	35%	-14%	8%[0.0925 µM]	3%	-3
COc1ccccc1C(=O)NC(=S)Nc1ccc(S(=O)(=O)N2CCN(C)CC2)cc1	3%	9%	9%	-22%	?	50µM*	-9%	-3
COc1ccc(Cl)cc1NC(=O)CNCC(c1ccccc1)N(C)C (centres undefined)	-9%	0%	-5%	?	?	50µM*	1%	4
Cc1cccn2cc(CNc3ccccc3)nc12	-8%	3%	24%	9%	-16%	2%[12.7 µM]	i	1
Cc1cccc(N2C(=O)c3cccnc3C2=O)c1	2%	5%	10%	18%	-15%	?	0%	-15
CCC(CC)Nc1ccc(C(CC(N)=O)NC(=O)c2ccccc2)cc1[N+](=O)[O-] (centres undefined)	0%	-1%	-5%	-9%	?	·	1%	2
Brc1ccc(CSc2ccc3nnc(-c4ccccn4)n3n2)cc1	-5%	3%	-7%	30%	?	-35%	-8%	-2
COc1ccc(/C=N/N2CCOCC2)cc1COc1ccc(F)cc1	?	-3%	12%	-16%	?	?	7%	4
COc1ccc(-c2cc(=O)oc3cc(OCC(=O)NCCCn4ccnc4)ccc23)cc1	-5%	7%	-5%	15%	?	·	-1%	1
C=CCN1C(=O)/C(=c2\sc3nc(=O)c(Cc4ccc(OC)c(OC)c4)nn3c2=O)c2ccccc21	·	12%	-1%	?	?	·	-4%	-3
COc1ccc(C(=O)N2c3cc4c(cc3C(C)=CC2(C)C)OCO4)cc1	-5%	4%	8%	?	?	?	-1%	6
O=c1c2oc3ccccc3c2n(Cc2cccc(Cl)c2)c(=O)n1Cc1ccco1	10%	5%	0%	1%	-20%	-33%[59 µM]	-1%	0
CN1C(=O)CS/C1=N\NC(=O)COc1cccc2cccnc12	0%	-9%	6%	6%	-11%	3.5µM*	-3%	4
CCOc1ccc(-c2cn(-c3ccc(OC)cc3)c(SC)n2)cc1	-3%	-7%	5%	?	-18%	?	-1%	3
Cc1cc(C)cc(-n2ccnc(NCc3ccc(F)cc3)c2=O)c1	-3%	6%	1%	?	?	-44%[59 µM]	-7%	5
CC(N=Cc1ccccc1O)c1ccccc1 (centres undefined)	-15%	-5%	27%	6%	-10%	-15%[59 µM]	-2%	-2
Cc1ccc(NC(=O)CSc2ccc(-c3ccccn3)nn2)cc1F	2%&-4%	6%&-2%	6%&1%	42%&63%	?	35%	-2%&3%	-1&1
O=C(CNc1cccc2ccccc12)c1ccc([N+](=O)[O-])cc1	-1%	-9%	-14%	-8%	-28%	3.5µM*	-2%	1
O=S(=O)(c1ccccc1)N1CCN(c2cc(-c3ccccc3)nc3ncnn23)CC1	4%	-6%	2%	26%	-4%	1%	-5%	1
N#CC1=C(N2CCCCC2)c2cc3c(n2C1=O)CCCC3	1%	0%	17%	-24%	?	45µM*	16%	-15

A second format for 3 compounds above.
| canonical_smiles | Pin1 inhibitor | ERG Ets-DNA blk | GLS inh | HP1b binding inh | JMJD2A Tudor | G9a inh | PGK inhibitor | PI4K2A block |
| --- | --- | --- | --- | --- | --- | --- | --- | --- |
| N#CC1=C(N2CCCCC2)c2cc3c(n2C1=O)CCCC3 | 1% | 0% | 17% | -24% | ? | 45µM* | 16% | -15 |
| O=C(CNc1cccc2ccccc12)c1ccc([N+](=O)[O-])cc1 | -1% | -9% | -14% | -8% | -28% | 3.5µM* | -2% | 1 |
| O=S(=O)(c1ccccc1)N1CCN(c2cc(-c3ccccc3)nc3ncnn23)CC1 | 4% | -6% | 2% | 26% | -4% | 1% | -5% | 1 |

(further entries)
SMILES	Pin1 inhibitor	ERG Ets-DNA blk	GLS inh	HP1b binding inh	JMJD2A Tudor	G9a inh	PGK inhibitor	PI4K2A block
O=C1CC(c2cccc(Cl)c2)CC(O)=C1C=NCCCO (centres undefined)	-18%	7%	2%	82%[activator]	-6%	9%[12.7 µM]	-13%	-6
O=C1Nc2ccc3sc4ccccc4c3c2C1=O	?	6%	5%	47%[activator]	?	-14%[59 µM]	-7%	-3
COc1ccc(NC(=O)c2cccnc2Nc2ccc(OC)cc2)cc1	2%	11%	0%	-30%	?	50µM*	0%	-6
Cn1nnnc1SCCCNCc1ccc(-c2ccc(Br)cc2)o1	-5%	0%	-16%	2%	?	-48%[59 µM]	2%	1
Cc1sc2ncnc(SCC(=O)N3CCC(c4noc5ccc(F)cc45)CC3)c2c1C	-1%	6%	18%	10%	-13%	-16%	-1%	3
CCCCn1c(SCC(=O)NC(=O)NCc2ccco2)nc2cc(S(N)(=O)=O)ccc21	?	·	-15%	0%	?	?	-18%	-12
Cn1c(=NC(=O)CSCC(=O)N2CCOCC2)sc2ccccc21	-6%	-1%	1%	40%[activator]	-23%	?	4%	-3
CCCCNc1c(-c2ccc(-c3cccc(Cl)c3)cc2)nc2ccccn12	4%	-10%	22%	?	?	23%[2.33 µM]	0%	-2
Cc1nc2c(c(C)nn2-c2ccccc2)c(C)c1CCC(=O)NCCc1ccc(Cl)cc1	0%	0%	-4%	25%	-9%	13%[59 µM]	-4%	-2
Cc1ccc(C2=NNC(C(O)C(O)C(O)C(O)CO)S2)cc1 (centres undefined)	9%	5%	3%	-23%	-31%	?	-3%	2
C/C(=N\NC(=S)Nc1cccc(C)c1)c1ccccc1	1%	1%	8%	?	?	18%	-4%	4
Cc1cc(NC(=O)CNCC(c2ccccc2)N(C)C)c([N+](=O)[O-])cc1C (centres undefined)	0%	-11%	13%	2%	?	-13%	0%	1
COc1ccccc1C(=O)NCC(c1cccs1)N1CCc2ccccc21 (centres undefined)	12%	-3%	-7%	?	?	50µM*	7%	1
C#CCNc1nc(CC)nc2c1nnn2Cc1ccccc1F	-4%	-6%	-10%	58%[activator]	-8%	-13%	-7%	-3
Cc1ccccc1OCCNC(=O)CSc1ccc(C(F)(F)F)cc1[N+](=O)[O-]	-1%	2%	-2%	-2%	-21%	?	-2%	-2
O=C(NNC(=S)NCCCN1CCOCC1)c1ccncc1	2%	-8%	21%	13%	-16%	20µM*	-3%	-1
CCOc1ccc(CN2CCc3nc(Nc4ccc5c(c4)OCCO5)ncc3C2)cc1	-3%	1%	-1%	?	?	0%[59 µM]	-4%	0
CCOC(=O)N1CCN(Cc2nc(N)nc(Nc3ccc(C)cc3C)n2)CC1	0%	11%	-7%	4%	?	-1%	1%	2
Nc1cnc(Nc2ccc(Br)cc2)nc1N	5%	-5%	5%	11%	?	-3%[12.7 µM]	-13%	-2
COc1ccc(OC)c(NC(=O)CSc2nc(N)c(-c3ccccc3)c(=O)[nH]2)c1	1%	1%	-6%	19%	-20%	12%[59 µM]	2%	-5
COCCn1c(=NC(=O)CSCC(=O)NC2CCCCC2)sc2cc(OC)ccc21	1%	-4%	12%	19%	-10%	?	3%	-4
Cc1nnc(NC(=O)c2ccc(N3CCCC3=O)cc2)s1	-2%	8%	-5%	11%	-22%	-40%	-3%	5
CS/C(=C\C(=O)c1ccco1)Nc1ccccc1Cl	3%	1%[15.4 µM]	?	-6%	?	50µM*	1%	1
COc1ccc(-c2csc3nc(C)nc(N4CCN(c5ccc(C(C)=O)cc5)CC4)c23)cc1OC	-1%	-9%	-16%	10%	-28%	?	-3%	0
CC(C)n1cnc2c(Nc3cccc(Cl)c3)nc(NCCCO)nc21	3%	-2%	0%	6%	?	?	i	3
Cc1ccc(Nc2ncccc2C(=O)O)cc1C	-10%	4%	19%&26%	11%	?	10%[59 µM]	0%	3
Cn1c(SCC(=O)NCc2ccco2)nnc1-c1ccccc1	-7%	-3%	5%	6%	-20%	?	i	-4
CCc1ccccc1OCC(=O)Nc1nc(-c2cccnc2)cs1	9%	0%	14%	11%	-28%	13%	7%	0
O=C(NCc1ccco1)c1ccc(Cn2c(=O)c3ccccc3n(Cc3cccc(Cl)c3)c2=O)cc1	32%[activator]	-2%	-20%	4%	-22%	?	-4%	3
Cc1ccc(C)c(CN2C(=O)C(O)(c3c[nH]c4ccccc34)c3ccccc32)c1 (centres undefined)	?	1%	-8%	-18%	?	?	2%	-3
Cc1cc(C)cc(-n2ccnc2SCC(=O)Nc2ccc(C)c(Cl)c2)c1	-4%	?	-3%	?	?	10µM*	-2%	-1
CCOC(=O)/C(=N\Nc1ccccc1[N+](=O)[O-])c1csc(N)n1	-1%	-15%	6%	?	?	-117%[59 µM]	-5%	1
CC(Oc1ccc(Br)cc1)C(=O)Nc1ncn[nH]1 (centres undefined)	3%	0%	2%	50%[activator]	?	14µM*	-5%	6
COc1ccc(/C=C2\CCn3c2nc2cc(C(=O)O)ccc2c3=O)cc1O	?	10%	6.3µM*	17%	-24%	?	-5%	-8
COc1cccc(-c2nc(CS(=O)(=O)CC(=O)NCCc3cc(OC)ccc3OC)c(C)o2)c1	-3%	0%	1%	0%	?	·	-10%	-9
CSc1nsc(/C=C/Nc2ccc(F)cc2)c1C#N	44%[activator]	21%	5%	10%	?	50µM*	-9%	-6
O=C1OC(c2ccc(Br)cc2)=N/C1=C\c1ccco1	5%	8%	-14%	38%	-14%	-35%	-1%	0
CCOc1ccc(CCNC(=O)CSc2nnnn2-c2ccccc2)cc1OCC	0%	-2%	-10%	12%	-7%	-31%[59 µM]	-2%	1
O=C(COC(=O)c1ccccc1Br)Nc1nnc(-c2ccccc2)o1	-2%	2%	5%	15%	?	-5%	-2%	3
Cc1ccn2c(=O)nc(SCC(=O)OCc3ccccc3)nc2c1	6%	-2%	7%	-15%	-19%	1.1µM*	-1%	-24
CCOc1ccc(NC(=O)Cc2ccc(S(=O)(=O)N3CCOCC3)s2)cc1OCC	2%	-5%	7%	10%	-21%	·	9%	7
O=Nc1c2nc3ccccc3n(O)c-2c2ccccc12	·	·	·	·	·	-8%[59 µM]	·	·
O=C(COc1ccccc1-c1nc(-c2ccccc2)no1)Nc1cccc([N+](=O)[O-])c1	0%	7%	-14%	-15%	?	?	-7%	-2
